KSHV LANA nucl: inhibitors of KSHV LANA binding to nucleosomes. FITC-LANA1-23 / chicken nucleosome fluorescence polarization; hits give low values. z-score (concentration not given with the values). 51,000 tested, 0.3% active. AID 720717;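 active = both repeat wells score below -2 in polarization z-score versus plate sample wells, excluding overly bright wells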;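 also: 100 nL library stock added to about 30 µL; numbers are from one replicate; some results filed as inactive read as strong as hits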
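Assay system: purified chicken nucleosomes with FITC-labelled LANA N-terminal peptide (1-23) / Probe or stimulus: 50 nM FITC-LANA1-23 probe / Compound dosing: pin-transferred compound, 100 nL / Times: compound with peptide–nucleosome mix 10–45 min at room temperature / Technique: fluorescence polarization, 480 nm excitation, 535 nm parallel and perpendicular emission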
BasE inh: BasE siderophore biosynthesis inhibition. purified BasE, fluorescence polarization binding displacement. inhibition, % (test concentration not listed). 84,000 tested, 0.1% active;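 active = both replicates above 25% with normal brightness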;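 also: 0% = negative plate control signal and 100% = positive plate control signal; stock transfer was 100 nL into about 30 µL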
* hit, by the source's call; . = no result given; & = joins results of further samples. This is a subset; count on the stated rates, not on these rows.

SMILES	KSHV LANA nucl	BasE inh
COc1cccc(NC(=S)Nc2ccc(S(N)(=O)=O)cc2)c1	0.455	-7.0
COc1cccc(-c2nc(=S)c3c(o2)CCCC3)c1	-0.147	2.0
CCOC(=O)c1cnc2ccccc2c1NCC(C)O (configuration not stated)	1.05	-2.7
COc1ccc(-c2noc(-c3ccc(Cl)c(Cl)c3)n2)cc1	.	-0.5
O=c1[nH]c2sc3c(c2c2ncnn12)CCCC3	-1.23	2.2
O=c1ccnc2n1COCS2	-0.859	1.4
CN(C(=O)CSc1ccc(C(F)(F)F)cn1)c1c2c(nn1C)CCCC2	.	0.7
CCC1=C(C(=O)OC)C(/C=C/c2ccccc2)n2ncnc2N1 (configuration not stated)	-0.0205	1.2
Cc1nc(Cl)c(C#N)cc1-c1ccccc1	1.21	.
CN(C)/C=C/c1onc(-c2c(F)cccc2Cl)c1C#N	-0.594	.
COc1cc(C(=O)NCCCc2nc3ccccc3[nH]2)cc(OC)c1OC	-0.28	1.5
CN1CCN(C(=O)CCc2nc(-c3ccccn3)no2)CC1	-0.372	1.3
Cc1ccc(SCc2cc(=O)[nH]c(N3CCCCC3)n2)cc1	-0.393	0.2
O=C(CCCN1CC=C(n2c(=O)[nH]c3ccccc32)CC1)c1ccc(F)cc1	-0.037&0.251&0.118&0.847	-3.5&3.7
Cc1cc(C)cc(-n2c(SCC(=O)NCC3CCCO3)nc3c(c2=O)SC(C)C3)c1 (configuration not stated)	-0.507	-0.7
N=c1c[n+](-c2ccc(Cl)cc2)[n-]o1	.	-1.6
COC(=O)C1=CO[C@@H](C)[C@@H]2CN3CCc4c([nH]c5ccccc45)C3C[C@H]12 (some centres not stated)	-0.101	0.6
O=C(c1cccc(Cl)c1)N1CCCc2ccccc21	-0.23	-0.8
COC(=O)c1cc(OC(=O)c2nn(-c3ccccc3)nc2C)n(-c2ccccc2)n1	.	1.3
O=C(O)/C=C/c1ccc(Cn2ccnc2)cc1	0.191&-0.13&-0.639	2.3

Of the compounds above, two contain a carbonyl joined to an NH by a bond outside any ring.
SMILES	KSHV LANA nucl	BasE inh
COc1cc(C(=O)NCCCc2nc3ccccc3[nH]2)cc(OC)c1OC	-0.28	1.5
Cc1cc(C)cc(-n2c(SCC(=O)NCC3CCCO3)nc3c(c2=O)SC(C)C3)c1 (configuration not stated)	-0.507	-0.7

Rewritten as a markdown table: entries from further up
| canonical_smiles | KSHV LANA nucl | BasE inh |
| --- | --- | --- |
| CN(C)/C=C/c1onc(-c2c(F)cccc2Cl)c1C#N | -0.594 | . |
| COc1cc(C(=O)NCCCc2nc3ccccc3[nH]2)cc(OC)c1OC | -0.28 | 1.5 |
| CN1CCN(C(=O)CCc2nc(-c3ccccn3)no2)CC1 | -0.372 | 1.3 |
| Cc1ccc(SCc2cc(=O)[nH]c(N3CCCCC3)n2)cc1 | -0.393 | 0.2 |
| O=C(CCCN1CC=C(n2c(=O)[nH]c3ccccc32)CC1)c1ccc(F)cc1 | -0.037&0.251&0.118&0.847 | -3.5&3.7 |
| Cc1cc(C)cc(-n2c(SCC(=O)NCC3CCCO3)nc3c(c2=O)SC(C)C3)c1 (configuration not stated) | -0.507 | -0.7 |
| N=c1c[n+](-c2ccc(Cl)cc2)[n-]o1 | . | -1.6 |

2 entries from above, set out differently:
Molecule | KSHV LANA nucl | BasE inh
COc1cccc(-c2nc(=S)c3c(o2)CCCC3)c1 | -0.147 | 2.0
CCOC(=O)c1cnc2ccccc2c1NCC(C)O (configuration not stated) | 1.05 | -2.7

Next structures:
SMILES	KSHV LANA nucl	BasE inh
CCOC(=O)N1CCN(S(=O)(=O)c2ccc(C)cc2)C1C(C)C (configuration not stated)	-0.816	-0.5
CN1C(=O)C(O)(CC(=O)/C=C/c2ccco2)c2ccccc21 (configuration not stated)	0.836	-0.5
Cc1cccc(NCN2C(=O)S/C(=C/c3ccc(N(C)C)cc3)C2=O)c1	0.131	1.1
O=C(NCC1CCCO1)c1ccc(CSc2ncn[nH]2)cc1 (configuration not stated)	.	0.7
O=C(OCC(=O)N1CCCCC1)c1ccc(S(=O)(=O)N2CCCCC2)cc1	.	4.5
COCC(C)n1c(SCC(N)=O)nc2ccccc2c1=O (configuration not stated)	.	-13.1
COCCn1c(-c2ccccc2)cnc1N	-0.474	-2.2
CCCOc1ccc(-c2nc(OCC)c3ccccc3n2)cc1	.	-0.7
Cc1nnc(NC(=O)CN2C(=O)c3cccnc3Sc3ccccc32)s1	-0.011	0.1
COc1ccc(-c2nc(CS(=O)(=O)c3ccc(F)cc3)no2)cc1OC	.	-1.8
FC(F)(F)c1ccccc1/C=N\N1CCN(c2ccccc2)CC1	0.188	1.5
CCc1cc(CC)c(CO)c(CC)c1CO	0.102	2.9
CCN(CC)C(=O)Nc1cccc(Cl)c1	1.32	-3.6
COc1ccccc1NC(=O)Cc1noc(COC(=O)c2ccc(SC)cc2OC)n1	.	0.1
CCN(C(=O)COc1ccccc1C#N)C12CC3CC(CC(C3)C1)C2	.	0.8
CCOc1ccc(CCNC(=O)c2cc3oc4ccccc4c3n2CC)cc1OCC	1.27	-1.7
COc1cc2c(cc1OC)C(CC(=O)O)c1cc(OC)c(OC)cc1C(=O)C2 (configuration not stated)	.	3.8
CC(C)(C)OC(=O)N1CCc2c(sc(N)c2C#N)C1	.	0.0
Cc1cc(O)c(C(=O)/C=C/N(C)C)c(=O)o1	.	-0.7
O=C(O)Cc1cc(=O)n(C2CCS(=O)(=O)C2)[nH]1 (configuration not stated)	.	-0.2
CN(C)/C=N/n1cnnc1	.	-3.0
O=C(NC12CCC(O)C(SC1)/C2=N/O)c1ccccc1 (configuration not stated)	0.0825	2.2
O=C1c2ccccc2C2(O)NC(=S)NC12O (configuration not stated)	-0.0345	0.5
CN(Cc1ccccc1)S(=O)(=O)c1ccc(C(=O)Nc2ccc(-c3nc4ccccc4[nH]3)cc2)cc1	.	3.7
COc1cc(OC)c(OC)cc1CNCc1cccnc1	-0.903	0.5
CCCn1c(N)c(C(=O)CN2c3ccccc3CC2C)c(=O)n(C)c1=O (configuration not stated)	.	2.7
COCCNC(=O)C12CC3CC(C1)CC(C(=O)NCCOC)(C3)C2	.	-1.4
CC1CCN(C=C(S(=O)(=O)c2ccccc2)S(=O)(=O)c2ccccc2)CC1	-0.328	-0.9
COC(=O)c1cnc(NCCCN2CCOCC2)c2ccccc12	-0.579	-0.5
OC(CNCc1ccccc1)Cn1c2ccc(Cl)cc2c2cc(Cl)ccc21 (configuration not stated)	.	2.7
Cc1cc(C(=O)COC(=O)/C=C/c2ccco2)c(C)n1-c1ccc(F)cc1	.	3.8
CCCN(CCC)CC(O)CN1C(=O)N(CN2C(=O)N(CC(O)CN(CCC)CCC)C(=O)C2(C)C)C(C)(C)C1=O (configuration not stated)	1.02	1.9
O=C1c2ccccc2C(=O)N1/N=C/c1ccc2c(c1)OCCO2	.	1.8
O=C1CCC(=O)N1c1ccc(CSc2nnnn2C2CCCCC2)cc1	0.307	1.2
O=C(C1CCC(CNS(=O)(=O)c2ccccc2)CC1)N1CCCC1 (configuration not stated)	1.5	-0.6
C=CCn1c(=O)c2ccccc2n2c(SCC(=O)NC3CCS(=O)(=O)C3)nnc12 (configuration not stated)	.	-0.6
Cc1[nH]nc(-c2cccs2)c1C(=O)NN	.	2.3
O=C(COCc1cc(-c2ccc(F)cc2)on1)N1CCCC1	0.76	-1.7
CNC(=S)Nc1ccc(S(N)(=O)=O)cc1	0.29	-0.4
CCOC(=O)Cc1csc(NC(=O)C2C3C=CC(C3)C2C(=O)O)n1 (configuration not stated)	0.185	-1.4
O=S(=O)(c1ccsc1)N1CC=C(c2ccccc2)CC1	0.603	.
CNC(=S)N1N=C(c2ccccc2)CC1c1cc2ccc(C)cc2nc1Cl (configuration not stated)	.	-3.4
Cc1ccc(NC(=O)c2cc3cc4c5c(c3oc2=N)CCCN5CCC4)cc1	-0.77	12.1
O=C(N=Nc1c(O)[nH]c2ccccc12)c1cccc(S(=O)(=O)N2CCCCC2)c1	.	-1.1
Cc1ccc(CNC2=CC(=O)CC(C)(C)C2)cc1	.	1.1
O=S1(=O)CC(O)C(S(=O)(=O)c2ccc(Cl)cc2)C1 (configuration not stated)	.	0.7
O=C1NCC(=Nc2ccccc2)C(=O)N1	.	0.7
O=C(CCSCc1cnn(-c2ccccc2)c1-n1cccc1)NCC1COCCO1 (configuration not stated)	0.117	0.6
Cc1nnsc1C(=O)N(Cc1ccc(Cl)cc1)Cc1ccco1	0.057	-1.8
O=C1CC(c2ccccc2Cl)Sc2ccccc2N1 (configuration not stated)	0.14	-2.5
NC(=O)COC(=O)c1ccc2ccccc2n1	.	-1.9
O=C1CCCC(O)=C1C=Nc1cccc(C(F)(F)F)c1	1.05	-2.4
Clc1ccc2nc(Cl)cc(-c3ccccc3)c2c1	.	0.7
CC(C)OC(=O)c1cc2c(ccn2-c2ccc(F)cc2)n1CC(=O)Nc1ccc2c(c1)OCO2	0.76	0.3
C/C(=N\c1nc2ccccc2n1C)c1cc(Cl)ccc1O	-1.31	0.2
COC(=O)C1C(=O)c2c(n[nH]c2C)CC1(C)C (configuration not stated)	0.835	-1.1
Cc1nn(-c2ccc(F)cc2)c(C)c1/C=C/C(=O)OCC(=O)Nc1sccc1C#N	.	-14.4
CC(=O)S[C@@H]1CC2=CC(=O)CC[C@]2(C)[C@H]2CC[C@@]3(C)[C@@H](CC[C@@]34CCC(=O)O4)[C@H]12	-0.163&-0.512	-3.3
O=C(Cn1c(C(F)(F)F)nc2ccccc21)NCCN1CCOCC1	0.0505	0.3
O=C(Nc1ccc(F)cc1)N1CCN(C(=O)C2COc3ccccc3O2)CC1 (configuration not stated)	0.374	3.3

Other results:
SMILES	KSHV LANA nucl	BasE inh
CCOC(=O)Nc1ccc(S(N)(=O)=O)cc1	.	-0.8
NC(=O)c1cccn1-c1ncc(C(F)(F)F)cc1Cl	0.197	.
c1ccc(C2=NNC(=NC3CC3)SC2)cc1	.	0.3
COc1cc(C#N)ccc1OC(=O)CC1CC2CCC1C2 (configuration not stated)	.	-2.5
O=C(Nc1ccc2c(c1)OCO2)c1ccncc1	.	3.4
O=C(CC1(C(F)(F)F)OCCO1)Nc1ccc(S(=O)(=O)Nc2ncccn2)cc1	.	2.2
Cc1nn(C2CCS(=O)(=O)C2)c(C)c1CN(C)c1ncnc2sccc12 (configuration not stated)	.	-2.4
COc1cc2ncnc(NNC(=O)c3ccco3)c2cc1OC	0.407	1.7
c1nc(NCCc2ccc3c(c2)OCCO3)c2ccsc2n1	.	-5.2
CCn1nc(C)c(Br)c1-c1nc(-c2cccc(C)c2)no1	1.35	-1.7
CC(C)OC(=O)C(Cc1ccccc1)N1COc2ccc3c4c(c(=O)oc3c2C1)CCC4 (configuration not stated)	0.939	-0.4
COc1ccc(NC(=S)Nc2ccc(S(=O)(=O)N3CCOCC3)cc2)cn1	-0.0375	2.5
CN(Cc1ccccc1Cl)C(=O)c1ccc(O)c(Cl)c1	.	-2.5
CC1Cc2ccccc2N1C(=O)CCS(=O)(=O)c1ccc2c(c1)CCN2C(=O)C1CC1 (configuration not stated)	-0.18	-0.6
Cc1[nH]nc2cc(F)ccc12	0.092	0.1
CC1CCCCN1c1ccc(NC(=O)c2cccnc2)cc1 (configuration not stated)	1.54	-3.9
COc1ccc2c(c1)c(=O)oc1c(C)c3occ(C)c3cc12	.	-0.2
O=C(CSc1ccccc1C(=O)N1CCc2ccccc21)NCc1ccco1	.	-1.8
CN1C(=O)/C(=N\OC(=O)c2cccc(F)c2)c2ccccc21	-0.73	0.9
CCOc1ccc(OCC)c(Nc2nc3ccc(C)cc3n3nnnc23)c1	-0.116	-0.2
Cc1ccc(C(=O)Nc2cccc(-c3nc4ccccc4o3)c2)cc1	.	-6.4
CC(/C=C/c1ccc(N(C)C)cc1)=N\N=C(/N)SC1CC(=O)N(c2ccccc2)C1=O (configuration not stated)	1.64	-2.0
O=C1O[C@@H]2C[C@H]3C[C@@H]2[C@@H]1[C@H]3C(=O)Nc1ccc(C(=O)N2CCCCC2)cc1	0.503	-0.7
CCOc1ccc(S(=O)(=O)N(CC(=O)N2CCCc3ccccc32)Cc2ccco2)cc1	.	0.7
Nc1ccc(Oc2ncc(C(F)(F)F)cc2Cl)cc1	-1.37	.
O=C(COC(=O)c1ccc(O)cc1)Nc1ccc(N2CCCCC2)cc1	.	3.5
Nn1c(=O)[nH]c2sc3c(c2c1=O)CCCC3	-0.349	0.3
Cc1ccc(NC(=O)CNC2CCCCC2)cc1Cl	-0.361	3.1
O=C(CSc1nnc(NCc2ccccc2)s1)N1CCOCC1	.	1.6
C=CCN1C(=O)S/C(=C/c2ccc(OC)c(OCC)c2)C1=O	-0.732	3.5
Cc1ccc(C)n1-c1ccc(C(=O)NC2CCC(O)CC2)cc1 (configuration not stated)	.	-4.4
O=C(OCC(=O)C12CC3CC(CC(C3)C1)C2)c1cccs1	.	1.1
CCCC(=O)C1C(=O)C=C(C)OC1=O (configuration not stated)	-0.881	1.9
CSC(NCc1ccc(Cl)cc1Cl)=C(C#N)C#N	.	-0.6
Cc1cc(C(=O)CSc2nc(N)c(C#N)cc2C#N)c(C)n1-c1ccc2c(c1)OCO2	.	0.7
O=C(c1cccs1)c1cnc2ncccn12	0.778	-0.2
Cn1cnc2onc(C(=O)Nc3ccc(F)cc3)c2c1=O	-1.28	0.8
Nc1ccccc1S(=O)(=O)NC1=NCCCCC1	.	-3.3
CC(C)c1cc(C(C)C)c(S(=O)(=O)NCCO)c(C(C)C)c1	-0.215	1.6
O=C1NC(c2ccccc2)=NC1(Nc1ccccn1)C(F)(F)F (configuration not stated)	0.245	-1.0
Cc1ccc2nc(COc3ncnc4ccccc34)cc(=O)n2c1	.	-1.7
COc1ccc(C(=O)CSc2ncn(-c3ccccc3)n2)cc1OC	0.042	0.0
CCC(C)NC(=O)CSc1nnc(-c2ccc(C)c(C)c2)o1 (configuration not stated)	.	2.7

Bioassay records: PubChem, ICCB-Longwood Screening Facility, Harvard Medical School
